KCNQ2 inh: KCNQ2 channel blockers in CHO-K1 cells – cell-based, FluxOR thallium flux, B-score, primary screen (AID 2156). B-score at 10 µM. hit rate 1.1% among 310,000. O88943. 20 min; stronger effect = lower value; only compounds with negative scores are shown here; some inactives read as strong as hits;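 active = fluorescence ratio B-score at most minus 3 library SDs, with starting brightness B-score within 2 library SDs, cut at about -5.5 in these data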
Target sequence (O88943 whole entry, looked up): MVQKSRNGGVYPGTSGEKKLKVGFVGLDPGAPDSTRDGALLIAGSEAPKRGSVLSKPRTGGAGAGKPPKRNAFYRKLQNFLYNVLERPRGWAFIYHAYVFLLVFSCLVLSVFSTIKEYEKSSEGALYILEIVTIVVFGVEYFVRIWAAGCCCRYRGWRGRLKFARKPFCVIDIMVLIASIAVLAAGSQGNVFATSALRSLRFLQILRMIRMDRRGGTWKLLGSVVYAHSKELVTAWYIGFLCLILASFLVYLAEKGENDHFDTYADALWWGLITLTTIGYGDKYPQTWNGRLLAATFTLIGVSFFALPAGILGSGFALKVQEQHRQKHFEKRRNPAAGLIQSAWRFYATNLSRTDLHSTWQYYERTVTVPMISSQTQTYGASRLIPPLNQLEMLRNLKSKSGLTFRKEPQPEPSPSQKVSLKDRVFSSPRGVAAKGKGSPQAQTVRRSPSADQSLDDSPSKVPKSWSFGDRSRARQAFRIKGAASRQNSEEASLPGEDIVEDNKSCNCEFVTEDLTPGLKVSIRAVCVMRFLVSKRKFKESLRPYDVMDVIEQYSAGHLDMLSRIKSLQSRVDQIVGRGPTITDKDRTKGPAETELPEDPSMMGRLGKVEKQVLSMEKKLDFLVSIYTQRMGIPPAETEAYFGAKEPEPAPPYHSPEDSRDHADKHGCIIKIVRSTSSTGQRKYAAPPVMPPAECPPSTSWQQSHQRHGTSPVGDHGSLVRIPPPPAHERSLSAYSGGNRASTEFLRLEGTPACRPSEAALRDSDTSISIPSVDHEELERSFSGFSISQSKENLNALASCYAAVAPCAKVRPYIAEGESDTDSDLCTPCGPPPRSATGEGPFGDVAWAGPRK
KCNQ2 inh baseline: further read-out of KCNQ2 inh, marked with its call; B-score; measured here: initial fluorescence intensity artifact check;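 brightness before thallium and not channel activity; 0 = typical well and far values either way flag optical interference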
Numbers without * were called inactive; i = inactive.

SMILES | KCNQ2 inh | KCNQ2 inh baseline
N/C(=N\O)c1ccncc1 | i | 0.7
COc1ccc(NC(=O)c2cccc(N3C(=O)NC4CC3(C)Oc3ccccc34)c2)cc1 (stereo unspecified) | i | -0.53
CCOc1cc(/C=C/c2ccc3cccc([N+](=O)[O-])c3n2)ccc1O | i | -0.85
CC(C)(C)c1ccc2c(c1)OC(C(=O)N/N=C\c1ccc[nH]1)CO2 (stereo unspecified) | i | -1.84
CCn1c(SCC(=O)NCc2ccco2)nnc1C1CCCC1 | i | 3.61
O=C1CSC(c2cccc(F)c2)N1c1ccccc1F (stereo unspecified) | i | 2.16
CCOc1cc(/C=N/NC(=O)CSc2cccc3cccnc23)ccc1O | i | -1.06
Cc1cc2c3nonc3ccc2n1-c1ccccc1 | i | 0.68
Oc1cccc(CCC2CCCCN2Cc2cn[nH]c2-c2ccc3c(c2)OCO3)c1 (stereo unspecified) | i | 0.61
O=S(=O)(NC1CCCCC1)c1ccc(F)c2ccccc12 | i | 0.9
CCOc1ccccc1NC(=O)CSc1nccn1-c1ccccc1 | i | 0.59
Cc1ccc(N(CC(=O)NC(C)(C)C)C(=O)CCC(=O)Nc2nccs2)cc1C | i | 1.87

Entries shown so far that have a halogen (two):
SMILES | KCNQ2 inh | KCNQ2 inh baseline
O=C1CSC(c2cccc(F)c2)N1c1ccccc1F (stereo unspecified) | i | 2.16
O=S(=O)(NC1CCCCC1)c1ccc(F)c2ccccc12 | i | 0.9

Following part:
SMILES | KCNQ2 inh | KCNQ2 inh baseline
Cn1cccc1C(=O)C(=O)Nc1ccccc1 | i | 4.15
c1ccc(COc2ccccc2CNC23CC4CC(CC(C4)C2)C3)cc1 | i | -0.34
O=C(c1ccccc1F)N(Cc1ccc2c(c1)OCO2)Cc1cc2cc3c(cc2n2nnnc12)OCO3 | i | -0.87
COCC(C)N1CCC(n2nccc2NC(=O)c2ccc3c(c2)OCO3)CC1 (stereo unspecified) | i | 0.12
O=c1c(C=NCc2cccnc2)c(C(F)(F)F)[nH]n1-c1nc2ccccc2s1 | i | -0.02
CC(C(=O)Nc1ccc([N+](=O)[O-])cc1)N1CCN(C/C=C/c2ccccc2)CC1 (stereo unspecified) | i | -0.26
Cc1ccc(-c2nc(N/N=C/c3ccccc3[N+](=O)[O-])c3ccccc3n2)cc1 | i | -0.96
O=C(O)CCCC(=O)Nc1ccc(Br)cc1C(=O)O | i | 1.37
COCCN(C(=O)COC(=O)C1(c2ccccc2)CC1)c1c(N)n(CC(C)C)c(=O)[nH]c1=O | i | 0.89
CNC(=S)N/N=C/c1cccc(OCc2ccccc2F)c1 | i | 0.08
Cc1ccc(C2=C(CC(=O)O)C(=O)CC2)cc1 | i | -0.92
CCCn1nnnc1NCc1cccc(OC)c1OC | i | 1.33
COCCn1c(=N)c(C(=O)NCc2ccco2)cc2c(=O)n3cc(C)ccc3nc21 | i | 9.12
Cc1c(C(N)=O)sc(N)c1C(=O)OC(C)C | i | 1.49
CCOC(=O)c1cccc(NC(=O)Cn2cc3c(n2)CCC(C)C3)c1 (stereo unspecified) | i | -0.7
CCO[C@H]1OC(C(N)=O)=C[C@@H](C2CC2)[C@@H]1CCCO | i | 0.09
CSCCC(NC(=O)c1ccc([N+](=O)[O-])cc1Cl)C(=O)OC(C)C(=O)NCc1ccco1 (stereo unspecified) | i | 0.6
O=C(NCCCn1ccnc1)c1nc(Cn2ccc([N+](=O)[O-])n2)no1 | i | -0.62
COc1ccc(OC)c(NC(=O)c2ccc(NS(C)(=O)=O)cc2)c1 | i | -0.16
CCN1c2ccccc2NC2N=C(OC)C(c3ccccc3)C21 (stereo unspecified) | i | -1.04
O=C(CN1CCN(c2ccc(O)cc2)CC1)NC1CCCc2ccccc21 (stereo unspecified) | i | 0.87
CC1CN(CC(O)COc2ccccc2C(C)(C)C)CC(C)O1 (stereo unspecified) | i | 0.67
N#C/C(Cn1c[n+](NC(=O)Nc2ccccc2)cn1)=N/O | i | 4.06
Cc1cc(C)n(CCCNC(=O)Cn2nnnc2CN2C[C@@H](C)O[C@@H](C)C2)n1 | i | 0.41

Look-ups from the list:
Oc1cccc(CCC2CCCCN2Cc2cn[nH]c2-c2ccc3c(c2)OCO3)c1 (stereo unspecified) in KCNQ2 inh baseline shows 0.61
CNC(=S)N/N=C/c1cccc(OCc2ccccc2F)c1 in KCNQ2 inh baseline shows 0.08
Cc1ccc(C2=C(CC(=O)O)C(=O)CC2)cc1 in KCNQ2 inh baseline shows -0.92
N/C(=N\O)c1ccncc1 in KCNQ2 inh baseline shows 0.7
Cc1cc(C)n(CCCNC(=O)Cn2nnnc2CN2C[C@@H](C)O[C@@H](C)C2)n1 in KCNQ2 inh baseline shows 0.41
CC1CN(CC(O)COc2ccccc2C(C)(C)C)CC(C)O1 (stereo unspecified) in KCNQ2 inh baseline shows 0.67

Other results
SMILES | KCNQ2 inh | KCNQ2 inh baseline
CCC(C)NC(=O)c1ccc(N2CCC3(CC2)OCCO3)c([N+](=O)[O-])c1 (stereo unspecified) | i | 1.35
Cn1c(CNC(=O)OC(C)(C)C)nnc1SCC(=O)N1CCOCC1 | i | -0.83
Nc1c(Br)cc(Br)cc1CNC1CCC(O)CC1 (stereo unspecified) | i | 0.39
CC(C)CNC(=O)C1CCCN(S(=O)(=O)c2ccc(-n3cnnn3)cc2)C1 (stereo unspecified) | i | -0.04
O=C(NCc1ccco1)C(c1ccco1)N(Cc1cccs1)C(=O)Cn1nnc2ccccc21 (stereo unspecified) | i | 0.49
Cn1c(=O)c([N+](=O)[O-])c(NCCCn2ccnc2)c2ccccc21 | i | 5.64
COc1cc(C(=O)Nc2cccc(-c3nnc(-c4ccco4)o3)c2)ccc1OC(C)=O | i | 0.41
O=C(CSc1nnnn1-c1ccccc1)Nc1ccccc1 | i | -1.11
CC1(C)CC(CCN)(Cc2ccccc2Cl)CCO1 (stereo unspecified) | i | 0.61
Cn1c(N)c(C(=O)COC(=O)c2cc(C3CC3)nc3ccccc23)c(=O)n(Cc2ccccc2)c1=O | i | -1.65
COc1ccc(/C=C/C(=O)Nc2cccc(N3CCOCC3)c2)cc1OC | i | 1.38
Cc1cccc(-n2c(-c3ccco3)nc3nc4ccccc4nc32)c1 | i | 0.02

Compound profiles (already shown). Screens in order: KCNQ2 inh	KCNQ2 inh baseline
Profile of COc1cc(C(=O)Nc2cccc(-c3nnc(-c4ccco4)o3)c2)ccc1OC(C)=O : i	0.41
Profile of Cn1c(N)c(C(=O)COC(=O)c2cc(C3CC3)nc3ccccc23)c(=O)n(Cc2ccccc2)c1=O : i	-1.65
Profile of CC1(C)CC(CCN)(Cc2ccccc2Cl)CCO1 (stereo unspecified) : i	0.61

The results go on:
SMILES | KCNQ2 inh | KCNQ2 inh baseline
CCOc1ccc(C(=O)Nc2ccc3c(c2)OCO3)cc1OCC | i | -1.27
Cn1c(O)c(N=NC(=O)CNC(=O)c2cccnc2)c2ccccc21 | i | 0.29
COc1ccc(N/C=C/C(=O)c2sc(-c3ccccc3)nc2C)cc1 | i | 0.95
COc1cccc(-c2cc(C(=O)N3CC4(C)CC3CC(C)(C)C4)no2)c1 (stereo unspecified) | i | 1.3
O=C(CCCc1c[nH]c2ccccc12)NCC1COc2ccccc2O1 (stereo unspecified) | i | -1.12
COc1ccc(C(=O)NCCS(=O)(=O)NCCc2ccccc2)cc1 | i | -2.12
CC1C=CCC2C(=O)N(c3ccccc3OC(=O)c3ccco3)C(=O)C12 (stereo unspecified) | i | 1.81
Cn1c(SCC(=O)N2c3ccccc3CCc3ccccc32)nnc1-c1cc2ccccc2cc1O | i | 0.33
CCOC(=O)CSc1nc(NC#N)nc(N(CC)CC)n1 | i | 2.46
CCOC(=O)c1c(C)nn(-c2ncccc2NC(=O)NC(C)C)c1C | i | 0.22
COc1cc2c(cc1OC)CN(c1ccc3ccccc3n1)CC2 | i | -1.77
CC(=O)Nc1ccc(NC(=O)C(C)OC(=O)CCC2CCCC2)cc1 (stereo unspecified) | i | -0.84
COc1ccc(/C=N/NC(=O)c2cccnc2)cc1O | -7.25* | -3.53*
O=C(CSc1nnnn1-c1ccccc1)Nc1ccc(Cl)cn1 | i | -0.22
COc1ccc2cc3cc(C(=O)Nc4ccc5c(c4)OCO5)oc3nc2c1 | i | 1.6
Cc1cc(C)nc(NS(=O)(=O)c2ccc(NC(=O)c3ccc4c(c3)OCCO4)cc2)n1 | i | 2.53
O=C(CCCCCn1c(=S)[nH]c2ccc(N3CCOCC3)cc2c1=O)NC1CCN(Cc2ccccc2)CC1 | i | 0.34
CCS(=O)(=O)Nc1cccc(C2=NN(S(=O)(=O)c3ccc(C)cc3)C(c3ccco3)C2)c1 (stereo unspecified) | i | -0.13
CCOC(=O)C1(C)/C(=N/Nc2ccccc2Cl)C(=O)C(=O)N1c1ccccc1 (stereo unspecified) | i | 0.25
COc1cccc(OCc2cc(C(=O)N3CCN(c4ccccc4O)CC3)no2)c1 | i | -0.03
CCCCC(=O)O[C@]1(C(=O)CO)CC[C@H]2[C@@H]3CCC4=CC(=O)CC[C@]4(C)[C@H]3[C@@H](O)C[C@@]21C | i | 0.24
COCC(=O)Nc1ccc2c(c1)OCC(=O)N2Cc1ccc(C)cc1 | i | 2.91
CCN1C(=O)C(CC(=O)Nc2ccc(OC)cc2)N(CCc2ccccc2F)C1=S (stereo unspecified) | i | 0.59
CCC1Sc2ccc(S(=O)(=O)CCC(=O)Nc3ccccc3Br)cc2NC1=O (stereo unspecified) | i | 0.07
O=C(CCCn1cncn1)N1CCCC(N2CCN(c3ccc(F)cc3)CC2)C1 (stereo unspecified) | i | -1.68
O=C1C(=Cc2cccn2-c2ccc(O)cc2)C(=O)c2ccccc21 | i | -0.58
Nc1c(-c2ccc3c(c2)OCCO3)oc2ccccc2c1=O | i | -1.5
CC1CCC(NC(=O)c2ccc(S(C)(=O)=O)cc2)CC1 (stereo unspecified) | i | 1.53
Cc1c(OC(C)C(=O)NCC(O)c2ccccc2)ccc2c3c(c(=O)oc12)CCCC3 (stereo unspecified) | i | -0.94
O=C(O)c1cccc(-n2cccc2/C=C2\SC(=O)N(Cc3ccccc3F)C2=O)c1 | i | -0.06
N/C(Cn1cncn1)=N\NC(=O)C(=O)Nc1cccc(C(F)(F)F)c1 | i | 0.07
O=C(NCc1ccccn1)c1cc(-c2ccc(Br)cc2)nc2ccccc12 | i | 1.33
Cc1[nH]c(=O)[nH]c(=O)c1S(=O)(=O)N(C)Cc1ccccc1 | i | -0.06
CCC(C)Sc1nc2c(c(=O)n1C)SC(C)C2 (stereo unspecified) | i | 0.15
CC#CC[N+](C)(C)CCCCCCCCCC | i | 0.19
CCNC(=S)N1CCCC(c2nc3ccc(C)cc3[nH]2)C1 (stereo unspecified) | i | 0.84
CN=C(c1ccc(C)cc1)n1c(=S)nc(-c2ccc(C)cc2)n(C)c1=S | i | 0.52
O=C(CSc1cn[nH]n1)Nc1ccccc1C(F)(F)F | i | 3.02
COc1ccc2cc(C(=O)N3CCc4ccccc43)[nH]c2c1 | i | -1.1
Cc1cc(C)n(CC(O)COc2ccccc2Br)n1 (stereo unspecified) | i | 0.15
COc1cccc2cc(C(=O)OCc3ccccc3)c(=O)oc12 | i | -1.6
COC(=O)c1c(C)oc(C)c1S(=O)(=O)Nc1ccccc1 | i | 0.91
N#Cc1cccc(OCC(=O)NC(=O)NCc2ccccc2)c1 | i | 0.18
Nn1c(SCc2cccc(Cl)c2)nnc1-c1ccncc1 | i | -1.69
CC(=O)c1ccc(C(=O)N(CCN(C)C)c2nc3c(Cl)cccc3s2)cc1 | i | 2.49
O=C(NC1CCCCC1)C(c1ccc(F)cc1)N(CCc1ccccc1)C(=O)CN1C(=O)c2ccccc2S1(=O)=O (stereo unspecified) | i | 0.24
C=CCc1cccc(C=Nc2cccn3cc(-c4ccccc4)nc23)c1O | i | 1.39
Cc1nn(-c2ccccc2)c(C)c1C(=O)NCc1ccccc1F | i | -1.06
O=C(CC(c1ccc(F)cc1)c1ccco1)N1CCCC1 (stereo unspecified) | i | 0.03
O=C(CN(C1CCCCC1)S(=O)(=O)c1ccc(F)cc1)Nc1ccc2c(c1)OCO2 | i | -1.96
O=C(CSc1nc(-c2ccc(F)cc2)cs1)N1CCN(C(=O)c2ccco2)CC1 | i | 0.39
CCCCNC(=O)C1(O)c2ccccc2NC(=O)N1c1ccc(Cl)cc1 (stereo unspecified) | i | -0.79
COc1cc(CNc2ccc3[nH]c(=O)[nH]c3c2)cc(Cl)c1OCC(=O)NC(C)(C)C | i | 0.95
COc1ccccc1OCCC(=O)OCCN1C(=O)c2ccccc2C1=O | i | 0.5
Cc1cc(Br)ccc1OCC(=O)NNC(=O)c1cnccn1 | i | -0.03
Cc1ccc(C)c(C(C)NC(=O)c2ccccc2Br)c1 (stereo unspecified) | i | 0.61
O=C(c1ccc2c(c1)OCO2)N1CCN(c2ccc(Cl)cc2)CC1 | i | -1.71
C/C(=N\NC(=O)C(O)(c1ccccc1)c1ccccc1)c1ccc(C)o1 | i | -1.47
Cc1ccc(S(=O)(=O)N2CCN(C(=O)C3CCN(C(=O)c4ccccc4C)CC3)CC2)cc1C | i | 2.28
COc1ccc(CNC(=O)C(C)N(Cc2ccccc2OC)C(=O)c2snc(C(N)=O)c2N)cc1 (stereo unspecified) | i | 0.13

Next part
SMILES | KCNQ2 inh | KCNQ2 inh baseline
c1csc(-c2nn3c(Cn4nnc5ccccc54)nnc3s2)c1 | i | -3.01
O=C(O)C(Cc1ccc(Cl)cc1)NS(=O)(=O)c1ccc(Cl)cc1 (stereo unspecified) | i | 0.25
CCN1CCn2c3c(c4cc(C)ccc42)CCCC31 (stereo unspecified) | i | -0.25
CCCCNC(=O)CSc1nnc(-c2ccc(S(=O)(=O)N3CCCC3)cc2)n1C | i | 0.26
CCOCCCNC(=O)c1ccc2c(c1)N(CC)C(=O)c1ccccc1S2=O (stereo unspecified) | i | -0.42
Cc1ccc(S(=O)(=O)N2C(=O)C(c3ccccc3)SC2=Nc2ccccc2)cc1 (stereo unspecified) | i | -0.12
Cc1cc(NC(=O)c2cccc(S(=O)(=O)N3CCCCC3)c2)no1 | i | 1.09

Not all compounds are listed (hit frequency here may not be typical).
